DUX4 txn inh – DUX4-mediated transcription inhibition; 293T-iDUX4 ZSCAN4-Gaussia luciferase reporter, 24 h; stronger effect = lower value; AID 1224904; 37,000 tested, 0.8% active; activity change, negative = inhibition, % (concentration not given with the values);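 active = -10% or lower and over 25 points stronger than a control reporter; inconclusive = -10% or lower with a smaller gap; inactive = above -10%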;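 note: 0% = median of neutral control wells and -100% = median of positive control wells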
DUX4 txn inh difference – further read-out of DUX4 txn inh, marked with its call; Gaussia minus Italica difference, %; measured here: selective DUX4 reporter inhibition;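 worked out from the two reporters; negative = selective loss of the DUX4 reporter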
DUX4 txn inh control – further read-out of DUX4 txn inh, marked with its call; activity change, negative = inhibition, %; measured here: Italica tet-on control reporter;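 0 = neutral control and -100 = positive control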
The depositor's hits bear a star; u = inconclusive; x = not tested or not shown; & = joins results of further samples. The list is partial, so the mix of outcomes need not match the whole.

The opening 12 records, to show the layout:
SMILES	DUX4 txn inh	DUX4 txn inh difference	DUX4 txn inh control
CN1CCN(C(=O)C[C@H]2CC[C@@H]3[C@H](COC[C@@H](O)CN3C(=O)Cc3ccccc3)O2)CC1	6	6	0.5
COc1ccc(NC(=O)Nc2ccc3c(c2)[C@@H]2C[C@@H](CC(=O)NC4CCCCC4)O[C@H](CO)[C@@H]2O3)cc1	6	5	1.2
N#C[C@@H]1[C@@H](c2ccccc2)[C@H](CO)N1S(=O)(=O)c1ccc(-c2ccccc2)cc1	0	-1	0.3
CN(C)C(=O)C[C@H]1C[C@H]2c3cc(NS(C)(=O)=O)ccc3O[C@H]2[C@@H](CO)O1	2	1	0.7
C[C@@H]1CN([C@H](C)CO)C(=O)c2cc(C#Cc3ccc(F)cc3)cnc2O[C@@H]1CN(C)C	-2	0	-2.6
O=C(Nc1ccc(F)cc1)N1CC(=O)N2[C@@H](CO)[C@@H](c3ccc(Br)cc3)[C@@H]2C1	5	5	-0.3
Cc1cccc(S(=O)(=O)N(C)C[C@H]2OCc3cnnn3CCCC(=O)N([C@H](C)CO)C[C@@H]2C)c1	-1	1	-1.2
Cc1ccccc1S(=O)(=O)N1[C@H](C#N)[C@@H](c2ccccc2)[C@@H]1CO	3	-2	4.8
COc1cccc(NC(=O)N2CC3(C2)[C@@H](c2ccccc2)[C@H](CO)N3C(C)=O)c1	12	11	1.2
CO[C@@H]1CN(C)C(=O)c2ccc(NC(=O)NC(C)C)cc2OC[C@H](C)N(Cc2ccc(-c3ccccn3)cc2)C[C@@H]1C	u	x	x
COc1ccc(S(=O)(=O)N(C)C[C@H]2Oc3ccc(NC(=O)Cc4cn(C)c5ccccc45)cc3C(=O)N([C@@H](C)CO)C[C@@H]2C)cc1	-4	0	-3.6
COc1ccc2c3c([nH]c2c1)[C@H](CO)N(C(=O)CN(C)C)CC31CCN(C(=O)c2ccncc2)CC1	12	1	11

Main list, repeating the preview:
SMILES	DUX4 txn inh	DUX4 txn inh difference	DUX4 txn inh control
CN1CCN(C(=O)C[C@H]2CC[C@@H]3[C@H](COC[C@@H](O)CN3C(=O)Cc3ccccc3)O2)CC1	6	6	0.5
COc1ccc(NC(=O)Nc2ccc3c(c2)[C@@H]2C[C@@H](CC(=O)NC4CCCCC4)O[C@H](CO)[C@@H]2O3)cc1	6	5	1.2
N#C[C@@H]1[C@@H](c2ccccc2)[C@H](CO)N1S(=O)(=O)c1ccc(-c2ccccc2)cc1	0	-1	0.3
CN(C)C(=O)C[C@H]1C[C@H]2c3cc(NS(C)(=O)=O)ccc3O[C@H]2[C@@H](CO)O1	2	1	0.7
C[C@@H]1CN([C@H](C)CO)C(=O)c2cc(C#Cc3ccc(F)cc3)cnc2O[C@@H]1CN(C)C	-2	0	-2.6
O=C(Nc1ccc(F)cc1)N1CC(=O)N2[C@@H](CO)[C@@H](c3ccc(Br)cc3)[C@@H]2C1	5	5	-0.3
Cc1cccc(S(=O)(=O)N(C)C[C@H]2OCc3cnnn3CCCC(=O)N([C@H](C)CO)C[C@@H]2C)c1	-1	1	-1.2
Cc1ccccc1S(=O)(=O)N1[C@H](C#N)[C@@H](c2ccccc2)[C@@H]1CO	3	-2	4.8
COc1cccc(NC(=O)N2CC3(C2)[C@@H](c2ccccc2)[C@H](CO)N3C(C)=O)c1	12	11	1.2
CO[C@@H]1CN(C)C(=O)c2ccc(NC(=O)NC(C)C)cc2OC[C@H](C)N(Cc2ccc(-c3ccccn3)cc2)C[C@@H]1C	u	x	x
COc1ccc(S(=O)(=O)N(C)C[C@H]2Oc3ccc(NC(=O)Cc4cn(C)c5ccccc45)cc3C(=O)N([C@@H](C)CO)C[C@@H]2C)cc1	-4	0	-3.6
COc1ccc2c3c([nH]c2c1)[C@H](CO)N(C(=O)CN(C)C)CC31CCN(C(=O)c2ccncc2)CC1	12	1	11
O=C(C[C@@H]1CC[C@H]2[C@@H](COC[C@H](O)CN2C(=O)Nc2ccccc2)O1)NCCc1ccncc1	0	-7	7.0
CCCC(=O)N1CC2(CN(S(=O)(=O)CC)C2)c2c(n(C)c3cc(OC)ccc23)[C@@H]1CO	22	10	11
CC=Cc1ccc2n(c1=O)C[C@H]1[C@H](CO)[C@@H](C(=O)N(C)C)[C@@H]2N1CC1CCOCC1 (mixture of isomers)	10	11	-1.1
C[C@@H]1CN([C@H](C)CO)C(=O)Cc2cc(NS(=O)(=O)c3ccc(F)cc3)ccc2O[C@H]1CN(C)Cc1ccncc1	2	0	2.3
C[C@@H]1CC=CC[C@@H](c2cccc(Cl)c2)NC(=O)[C@@H](Cc2ccccc2)N(C)C(=O)c2ccccc2O1 (mixture of isomers)	7	6	1.1
C[C@H](CO)N1C[C@H](C)[C@@H](CN(C)C(=O)NC2CCCCC2)Oc2ccc(NC(=O)Cc3ccccc3)cc2C1=O	-3	-6	3.5
CCCC#Cc1ccc2c(c1)[C@H]1[C@H](CCN1S(=O)(=O)c1cccc(F)c1)[C@H](CO)N2C	-4	-6	2.2
C/C=C/c1ccc2c(c1)O[C@H](CN(C)C(=O)C1CCCCC1)[C@@H](C)CN([C@@H](C)CO)S2(=O)=O	-3	-3	-0.2
COc1cccc(-c2ccc(C3[C@@H]4CN(C(=O)C5CCOCC5)C[C@H]3N4)cc2)c1 (some centres not stated)	13&-7	-11&5	24&-12
COc1cccc(NC(=O)N[C@@H]2C=C[C@H](CC(=O)Nc3ccc(-c4ccccc4)cc3)O[C@H]2CO)c1	3	1	2.4
C[C@H](CO)N1C[C@H](C)[C@@H](CN(C)C(=O)Nc2ccnc(N3CCOCC3)c2)OCc2ccccc2-c2ccccc2C1=O	-3	-8	4.8
N#C[C@H]1[C@@H](c2ccc(C3=CCCC3)cc2)[C@H](CO)N1C(=O)C1CCC1	5	1	4.4
C[C@H](CO)N1C[C@H](C)[C@H](CN(C)S(=O)(=O)c2cn(C)cn2)OCCCC[C@H](C)Oc2ccc(NC(=O)CCCN(C)C)cc2C1=O	8	8	0.7
Cc1noc(C)c1S(=O)(=O)N(C)C[C@@H]1OCc2ccccc2-c2ccccc2C(=O)N([C@@H](C)CO)C[C@H]1C	2	-11	13
CCCC#Cc1ccc([C@@H]2[C@@H](CO)N3C(=O)CN(C(=O)CN4CCOCC4)C[C@@H]23)cc1	6	-5	10
COc1cccc(NC(=O)N2C[C@H](O)COC[C@H]3O[C@H](CC(=O)NCc4ccccc4F)CC[C@@H]32)c1	0	-5	4.7
C[C@H]1CCCCO[C@H](CN(C)C(=O)c2ccncc2)[C@@H](C)CN([C@@H](C)CO)C(=O)c2cc(NS(=O)(=O)c3cccs3)ccc2O1	3	1	1.5
COc1ccc(NC(=O)N(C)C[C@@H]2OCc3ccccc3-c3c(n(C)c4ccccc34)C(=O)N([C@H](C)CO)C[C@@H]2C)c(OC)c1	-1	-12	11
Cc1noc(C)c1S(=O)(=O)N(C)C[C@@H]1Oc2c(NS(=O)(=O)c3cn(C)cn3)cccc2C(=O)N([C@H](C)CO)C[C@H]1C	-3	-1	-1.2
COc1ccc2c3c([nH]c2c1)[C@H](CO)NCC31CN(C(=O)c2ccccc2)C1	11	21	-9.8
CC[C@H]1CC=CC[C@H](C)Oc2ccccc2C(=O)N(C)[C@@H](Cc2ccccc2)C(=O)N1 (mixture of isomers)	3	1	2.2
O=C(C[C@H]1CC[C@H](NC(=O)CC2CC2)[C@H](CO)O1)NCc1ccc(-c2ccccc2)cc1	-5	7	-12
CCN1[C@H](C(=O)N(C)C)[C@@H](CO)[C@@H]2Cn3c(ccc(C4=CCCCC4)c3=O)[C@@H]21	4	3	0.7
C[C@@H](NC(=O)C[C@H]1CC[C@H]2[C@@H](COC[C@H](O)CN2Cc2cc(F)ccc2F)O1)c1ccccc1	-2	-2	0.1
O=C(NCC[C@H]1CC[C@@H](NS(=O)(=O)c2cccc(Cl)c2)[C@H](CO)O1)c1cnccn1	3	7	-3.9
O=C(C[C@H]1CC[C@H](NC(=O)CN2CCOCC2)[C@@H](CO)O1)NC1CCC1	-5	-11	5.4
Cc1ccc(S(=O)(=O)NCC[C@@H]2CC[C@@H](NS(=O)(=O)c3ccccc3Cl)[C@H](CO)O2)cc1	8	4	4.4
CC(C)NC(=O)N[C@@H]1C=C[C@H](CC(=O)NCc2ccc(Oc3ccccc3)cc2)O[C@@H]1CO	-6	-9	2.9
COc1cccc(NC(=O)N(C)C[C@H]2OCc3cnnn3CCCC(=O)N([C@H](C)CO)C[C@H]2C)c1	0	0	0.5
CCNC(=O)C[C@H]1CC[C@H](NC(=O)C2CC2)[C@H](CO)O1	5	4	0.9
C/C=C/c1cccc(-c2nc(C(=O)NCc3ccc(OC)cc3)cc3c2[C@@H](CCO)N([S@](=O)C(C)(C)C)C3)c1	-5	-1	-4.2
N#Cc1ccc(-c2ccc(C3[C@H]4CNC[C@@H]3N4C(=O)NC3CCCCC3)cc2)cc1 (some centres not stated)	4	18	-14
O=C(N[C@@H]1C=C[C@H](CC(=O)N2CCOCC2)O[C@H]1CO)c1ccccn1	3	1	2.9
N#C[C@H]1[C@H](c2ccccc2-c2ccccc2F)[C@@H](CO)N1C(=O)c1cccc(F)c1	-2	-3	1.0
COc1ccc2c3c(n(C)c2c1)[C@H](CO)N(S(C)(=O)=O)CC31CN(C(=O)c2ccccn2)C1	1	-5	6.5
COC(=O)C[C@H]1CC[C@H]2[C@H](COc3ccc(NC(=O)Nc4c(C)noc4C)cc3C(=O)N2C)O1	8	7	1.0
COc1ccccc1C#Cc1ccc([C@@H]2[C@@H](CO)N3CCCCN(S(C)(=O)=O)C[C@@H]23)cc1	-1	-7	5.7
CN1[C@@H]2Cn3c(ccc(/C=C/c4ccccc4)c3=O)[C@H]1[C@@H](C(=O)NC1CCCCC1)[C@@H]2CO	9	6	3.1
CC(C)NC(=O)Nc1ccc2c(c1)C(=O)N(C)[C@@H]1CC[C@@H](CC(=O)NCc3ccc(F)cc3)O[C@H]1CO2	2	5	-3.0
CCCN1[C@@H]2c3ccc(-c4ccccc4OC)c(=O)n3C[C@@H]2[C@@H](CO)[C@@H]1C(=O)Nc1nccs1	4	5	-0.4
C[C@H](CO)N1C[C@H](C)[C@H](CN(C)S(C)(=O)=O)Oc2cc(C#CCN(C)C)ccc2S1(=O)=O	-4	-4	-0.4
OC[C@H]1[C@H](c2ccc(Br)cc2)[C@@H]2CN(Cc3ccccn3)CCCCN12	15	5	9.9
COc1ccc(NC(=O)N(C)C[C@@H]2OCCCC[C@H](C)Oc3ccc(NC(=O)CCCN(C)C)cc3C(=O)N([C@H](C)CO)C[C@H]2C)cc1	2	-2	4.4
CC=Cc1ccc2n(c1=O)C[C@H]1[C@H](CO)[C@@H](C(=O)NCc3ccccc3F)N[C@@H]21 (mixture of isomers)	-9	-12	3.0
CCc1cnc(N2[C@H](C#N)[C@@H](c3ccc(-c4cccc(F)c4)cc3)[C@@H]2CO)s1	-3	-5	1.5
COCC(=O)N1CC(=O)N2[C@H](C1)[C@H](c1ccc(Br)cc1)[C@@H]2CO	11	-7	17
C[C@H]1CN([C@@H](C)CO)S(=O)(=O)c2ccc(-c3ccc(C#N)cc3)cc2O[C@@H]1CN(C)Cc1cccc(F)c1	-3	-1	-3.0
CO[C@H]1CN(C)C(=O)c2ccc(NC(=O)Nc3cccc(F)c3)cc2OC[C@H](C)N(C(=O)Nc2c(C)noc2C)C[C@@H]1C	-2	-4	2.5

Next section
SMILES	DUX4 txn inh	DUX4 txn inh difference	DUX4 txn inh control
COc1ccc2c3c([nH]c2c1)[C@@H](CO)N(C(=O)c1ccccc1)CC31CN(S(=O)(=O)c2cccs2)C1	u	x	x
O=C(NCCN1CCCCC1)[C@@H]1[C@@H](CO)[C@@H]2Cn3c(cccc3=O)[C@@H]2N1Cc1ccccn1	1	-7	7.6
COCC(=O)N1CC2(C1)CN(Cc1ccccn1)[C@H](CO)c1[nH]c3cc(OC)ccc3c12	0	-1	0.9
O=C(C1CCOCC1)N1CC2(C1)[C@@H](c1ccccc1)[C@H](CO)N2C(=O)CC1CC1	21	20	1.3
CCN1[C@@H]2c3ccc(-c4cccc(F)c4)c(=O)n3C[C@@H]2[C@@H](CO)[C@@H]1C(=O)N(C)C	3	4	-0.8
COc1cccc(S(=O)(=O)N2CC[C@H]3[C@@H](CO)N(C)c4ccc(C5=CCCCC5)cc4[C@H]32)c1	2	-11	14
CCCNC(=O)[C@@H]1[C@@H](CO)[C@@H]2Cn3c(cccc3=O)[C@H]1N2C(=O)C1CCC1	-1	-2	1.6
Cn1cnc(CCNC(=O)C[C@H]2CC[C@@H]3[C@H](COC[C@H](O)CN3C(=O)Nc3ccc(Cl)cc3)O2)c1	3	-5	8.0
CCC(=O)N1CC[C@H]2[C@H](CO)Nc3ccc(C#Cc4cccc(OC)c4)cc3[C@H]21	21	4	17
C[C@H]1CN([C@@H](C)CO)C(=O)c2cccc(NC(=O)c3ccncc3)c2O[C@H]1CN(C)S(=O)(=O)c1ccccc1	-5	-6	1.6
CC=Cc1ccc2n(c1=O)C[C@@H]1[C@@H](CO)[C@H](C(=O)Nc3ccc(-c4ccccc4)cc3)[C@H]2N1C(C)=O (mixture of isomers)	u	x	x
CCNC(=O)[C@H]1[C@H](CO)[C@H]2Cn3c(ccc(-c4ccc(F)cc4)c3=O)[C@@H]1N2C	2	1	0.4
COC(=O)C[C@H]1CC[C@H]2[C@@H](COc3ccc(NS(=O)(=O)c4ccccc4F)cc3C(=O)N2C)O1	4	4	-0.3
CCCNC(=O)Nc1ccc2c(c1)OC[C@H](C)N(C(=O)C1CCOCC1)C[C@@H](C)[C@H](OC)CN(C)C2=O	1	0	1.1
Cc1cccc(NC(=O)Nc2ccc3c(c2)C(=O)N(C)[C@@H]2CC[C@H](CC(=O)NCc4ccccc4Cl)O[C@H]2CO3)c1	6	0	5.6
CC=Cc1ccc2n(c1=O)C[C@H]1[C@H](CO)[C@@H](C(=O)OC)N(CCc3ccccc3)[C@@H]21 (mixture of isomers)	7	8	-1.1
CCCNC(=O)N1[C@H](CNC(C)=O)[C@H](c2ccccc2)[C@@H]1CO	-3	-3	0.4
